B2AR ag: activates human beta-2 adrenergic receptor causing internalization | P07550 | Am2.2-beta2AR cells, FAP receptor internalization, flow cytometry; reference of the scale not given here | response, % (no concentration beside the values) | actives 0.43% (n = 340,000);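 active means response above a set limit, near 3 SD of response in nonfluorescent compounds, cut at about 42% in these data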;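 further: stock transfer was 100 nL into about 11 µL; a reference agonist was the positive control; negative values mostly stem from fluorescent compounds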
Target sequence (P07550 whole entry, looked up): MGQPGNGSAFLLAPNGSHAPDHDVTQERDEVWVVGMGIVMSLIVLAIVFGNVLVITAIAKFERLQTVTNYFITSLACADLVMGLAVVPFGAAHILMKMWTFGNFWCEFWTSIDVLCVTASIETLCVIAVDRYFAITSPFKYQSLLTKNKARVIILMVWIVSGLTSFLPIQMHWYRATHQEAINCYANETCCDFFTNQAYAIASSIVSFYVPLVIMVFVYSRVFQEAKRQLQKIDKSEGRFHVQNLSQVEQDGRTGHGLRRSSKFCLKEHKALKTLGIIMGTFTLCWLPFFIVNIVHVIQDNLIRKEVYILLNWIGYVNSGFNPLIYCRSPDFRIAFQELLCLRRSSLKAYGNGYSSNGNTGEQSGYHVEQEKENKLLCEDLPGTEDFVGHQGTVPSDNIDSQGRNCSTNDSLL
RanGTP-Imp inh: inhibitors of RanGTP-importin-beta interaction, primary screen, biochemical, FRET, CFP-Ran, YFP-importin-beta, homogeneous; cell-free CFP-Ran/YFP-importin-beta FRET ratio; inhibition, % (concentration not given with the values); actives 1.1% (n = 300,000);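 active means most replicates above 15%; inconclusive means exactly half above 15%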;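 further: 0% = DMSO wells and 100% = Ran loaded with GDP instead of GTP; wells of about 40 µL received 100 nL stock; the first replicate is given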
Calb FLC: C. albicans growth modulation with fluconazole. AID 1979. C. albicans CaCi-2 (fluconazole-resistant clinical isolate) + fluconazole, Alamar Blue growth, 48 h. growth inhibition, % (no concentration beside the values). actives 0.57% (n = 300,000);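 active means most replicates above 75%; inconclusive means exactly half above 75%; inactive means most below 75%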;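 further: all wells also contain fluconazole at 8 µg/ml as a sub-toxic cotreatment; 0% = median of DMSO wells and 100% = median of geldanamycin control wells; wells of about 8 µL received 7.5 nL stock; the first replicate is given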
Vif TR-FRET: inhibitors of Vif binding to APOBEC3G peptide, primary screen, biochemical, TR-FRET, GST-Vif 1-94, biotin-A3G peptide, dose response retest (AID 1117319). TR-FRET GST-Vif / biotin-A3G peptide binding; higher % means a stronger effect; test concentration not given here; strong numbers were not always called active. inhibition, %; hits with a dose series show IC50 in µM. actives 0.57% (n = 260,000);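 active means above the screen mean plus three standard deviations and confirmed in dose response; inconclusive means results disagree or hit not tested in dose response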;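 further: Vif residues 1-94 fused to GST binding biotinylated APOBEC3G peptide 110-148; 0% = full assay without inhibitor and 100% = GST in place of GST-Vif; retest series ran down from 100 µM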
HNF4A DNA FP: change in binding of human HNF4 alpha to DNA; P41235; HNF4a-FITC DNA binding, fluorescence polarization, 1 h; activity change, % at 10 µM; actives 0.3% (n = 360,000); in the data active means activity change above about 30%, passing the limit was not always enough;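 further: controls were the assay level and a saturating level of protein; the project sought stronger binding though the title names inhibitors; some compounds called inactive have numbers as strong as hits; positive values seem to mean higher polarization but the record does not say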
Target sequence (P41235 whole entry, looked up): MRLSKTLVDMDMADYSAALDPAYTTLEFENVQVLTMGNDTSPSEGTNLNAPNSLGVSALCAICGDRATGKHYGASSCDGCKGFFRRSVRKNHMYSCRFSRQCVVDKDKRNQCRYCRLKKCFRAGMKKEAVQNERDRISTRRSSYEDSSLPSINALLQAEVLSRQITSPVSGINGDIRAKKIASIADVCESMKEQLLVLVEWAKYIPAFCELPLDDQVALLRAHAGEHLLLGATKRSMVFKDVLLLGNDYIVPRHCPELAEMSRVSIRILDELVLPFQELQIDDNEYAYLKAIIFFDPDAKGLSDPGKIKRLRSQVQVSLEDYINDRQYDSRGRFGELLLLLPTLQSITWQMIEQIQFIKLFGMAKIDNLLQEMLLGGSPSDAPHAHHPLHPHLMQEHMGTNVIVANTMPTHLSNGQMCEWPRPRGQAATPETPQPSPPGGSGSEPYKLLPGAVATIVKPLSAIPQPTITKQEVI
LANA-H2B inh: blocks KSHV LANA binding to histone H2A/H2B. Q9QR71. cell-free LANA-H2A/H2B peptide, fluorescence polarization. inhibition, % (concentration not given with the values). actives 0.6% (n = 320,000). AID 2629; in the data active means inhibition mostly above about 10%, no sharp cut-off; inactive means mostly below about 6.7%;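 further: stock transfer was 7.5 nL into about 10 µL; 0% = median of vehicle wells and 100% = median of positive control wells; one replicate is shown; the record names a cut of 25% in any replicate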
ALR inh: human ALR oxidase inhibition via reduced H2O2 | P55789 | purified ALR, DTT oxidation, H2O2 HRP-luminol luminescence | inhibition, % (concentration not given with the values) | actives 3.8% (n = 290,000);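 active means mean and each replicate at 75% or more; inconclusive means only one of the two met; inactive means neither met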;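 further: stock transfer was 7.5 nL into about 7.5 µL; 0% = neutral wells and 100% = wells with inactivated enzyme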
Target sequence (P55789 whole entry, looked up): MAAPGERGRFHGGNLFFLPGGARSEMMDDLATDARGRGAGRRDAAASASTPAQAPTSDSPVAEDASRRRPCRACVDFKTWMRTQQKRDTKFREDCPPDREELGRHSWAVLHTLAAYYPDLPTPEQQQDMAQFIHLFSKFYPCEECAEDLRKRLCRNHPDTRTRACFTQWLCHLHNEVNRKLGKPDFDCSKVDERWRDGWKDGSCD
Numbers without * were called inactive; ? = inconclusive; . = not tested or not shown.

SMILES | B2AR ag | RanGTP-Imp inh | Calb FLC | Vif TR-FRET | HNF4A DNA FP | LANA-H2B inh | ALR inh
COc1ccc(NC(=O)Nc2cccc3c2O[C@H](CN(C)C(=O)Nc2ccc(OC)cc2)[C@@H](C)CN([C@H](C)CO)C3=O)cc1 | 6 | . | . | . | 1.5 | -0.4 | -11
CCOc1ccc(N(CC(=O)NCC2CCCO2)C(=O)CCC(=O)Nc2ccccn2)cc1 (stereo not given) | 1 | 3.0 | 0 | 9% | -0.2 | 3.4 | -21
C=CCSc1nc(N)c(C(=O)Nc2ccccc2C)cc1C(N)=O | -6 | 0.6 | 2 | 2% | 1.4 | -2.1 | .
CCCc1nnc(NC(=O)CCC(=O)NC2CCCCCC2)s1 | -3 | 1.7 | . | 2% | 4.0 | -2.3 | -2
COc1ccc([N+](=O)[O-])cc1NC(=O)CN(C)S(=O)(=O)c1ccccc1 | -2 | -3.2 | 15 | -2% | 2.0 | 3.4 | 2
CC(=O)Nc1ccc(C(=O)n2cnc3cc(C)c(C)cc32)cc1 | -9 | 5.1 | -3 | 2% | -0.7 | -2.1 | 99*
O=C(NNC(=S)NCc1ccc(Cl)cc1)c1cccnc1 | 1 | -1.3 | -10 | 8% | 2.6 | -4.4 | -2
CCOC(=O)N1CCN(CC(=O)c2ccc(O)cc2O)CC1 | -4 | 3.0 | 6 | . | -3.7 | -1.9 | 13
Cc1cccc(C(=O)N[C@H](C(=O)NCCc2ccc(Cl)cc2)C(C)C)c1 | -7 | -6.0 | -18 | . | 0.6 | 4.0 | 0
N=c1c2c(n(Cc3ccccc3)c3c1CCC3)CCC2 | -1 | -0.6 | -4 | 9% | 2.0 | 1.4 | -18

Quoted from the listing.
Value for `COc1ccc(NC(=O)Nc2cccc3c2O[C@H](CN(C)C(=O)Nc2ccc(OC)cc2)[C@@H](C)CN([C@H](C)CO)C3=O)cc1` in HNF4A DNA FP: 1.5
Value for `CCOc1ccc(N(CC(=O)NCC2CCCO2)C(=O)CCC(=O)Nc2ccccn2)cc1` (stereo not given) in ALR inh: -21

Next section:
SMILES | B2AR ag | RanGTP-Imp inh | Calb FLC | Vif TR-FRET | HNF4A DNA FP | LANA-H2B inh | ALR inh
CCOC(=O)/C(C#N)=C/c1ccc(OCC(=O)Nc2cc(C)ccc2C)c(OC)c1 | 2 | -3.3 | -9 | -5% | 0.8 | -0.1 | 50
Cc1sc(NC(=O)C2CCCO2)c(C#N)c1C (stereo not given) | 4 | -4.8 | -3 | 15% | -1.3 | -3.2 | 28
CC1(C)CC(=O)C(CC2CCCCC2=O)C(=O)C1 (stereo not given) | 5 | -1.7 | 1 | -2% | -9.6 | 0.4 | -8
O=C(CCCCCCC(=O)NCc1ccccc1)NCc1ccccc1 | -10 | -3.0 | -6 | 42% | 3.5 | 1.1 | .
COc1cc(C2C3C(=O)N(Cc4ccccc4)C(=O)C3ON2c2ccccc2)cc(OC)c1O (stereo not given) | 11 | -0.9 | -12 | 6% | -2.5 | -1.6 | 3
C=CCSc1nc(C)c(CC(=O)OCC(C)C)c(=O)[nH]1 | -7 | 2.2 | 2 | 2% | -2.1 | 2.6 | 8
COc1ccccc1P(=O)(c1ccccc1)c1ccccc1 | -4 | 3.0 | 5 | . | -1.2 | -2.4 | -1
O=C(Nc1ccc(N2CCOCC2)c([N+](=O)[O-])c1)c1ccco1 | -18 | -2.7 | 42 | . | 4.0 | 5.6 | 1
Cc1ccc(NS(=O)(=O)c2cccc(C(=O)NCc3ccccn3)c2)cc1 | -4 | -0.8 | -5 | -1% | -0.4 | 5.2 | -3
COc1ccc(N(CC(=O)NCc2ccncc2)S(=O)(=O)c2ccc(C)c([N+](=O)[O-])c2)cc1 | -2 | -2.2 | 7 | 0% | 0.0 | -2.3 | -5
S=c1nc2ccccc2c2nc(-c3ccccc3)[nH]n12 | 2 | 0.6 | ? | -4% | -2.7 | -4.2 | .
COc1cc(C2C(C(=O)OCCC#N)=C(C)NC3=C2S(=O)(=O)c2ccccc23)cc(OC)c1OC (stereo not given) | -17 | -0.6 | 9 | -7% | 8.1 | -0.6 | 22
O=C(CN(C(=O)c1csnn1)c1cccc2ccccc12)NCc1ccccc1 | 2 | 0.0 | 5 | . | 0.0 | 4.1 | -5
CCC(=O)NC(NC(=S)Nc1ccc(S(N)(=O)=O)cc1)C(Cl)(Cl)Cl (stereo not given) | 1 | ? | 4 | 6% | -1.5 | 1.3 | 29
NS(=O)(=O)c1ccc2c(c1)C(=NO)c1cc(S(N)(=O)=O)ccc1-2 | -3 | -1.2 | -4 | . | -0.8 | 1.9 | -16
O=[N+]([O-])c1ccc2c(c1)S(=O)c1ccccc1-2 (stereo not given) | -3 | -2.8 | -3 | 67% | -1.4 | 5.0 | -15
C[C@H](CO)N1C[C@H](C)[C@@H](CN(C)Cc2ccc(C(=O)O)cc2)Oc2c(NC(=O)C3CC3)cccc2C1=O | -2 | . | . | 0% | -2.5 | 0.6 | .
COc1ccc(N2CCN(c3nc(NC(C)(C)C)nc(N4CCCCC4)n3)CC2)cc1 | 8 | -3.3 | -1 | 12% | -0.6 | 1.4 | 2
CCNC(=S)NNc1ccccc1 | 6 | -3.4 | -15 | -3% | -1.4 | 4.8 | 64
CC(O)(CS(=O)(=O)c1ccc(Br)cc1)c1ccccc1 (stereo not given) | -4 | -2.3 | 13 | -9% | -0.8 | 14 | -3
CCCCn1c(N)c(N(CCOC)C(=O)c2ccc(-n3c(C)ccc3C)cc2)c(=O)[nH]c1=O | -1 | 6.7 | -2 | 10% | 6.1 | -1.0 | -2
Cc1csc2nc(SCC(=O)N3CCN(c4ccccc4)CC3)[nH]c(=O)c12 | 0 | 1.4 | -9 | . | 3.4 | 1.5 | 38
CCN(CC)CCNC(=O)Cn1nc(Cc2ccncc2)c2ccccc2c1=O | -10 | 2.3 | -1 | -3% | 4.4 | -7.2 | 7
Cc1ccc(S(=O)(=O)N(C)CC(O)Cn2c3ccccc3c3ccccc32)cc1 (stereo not given) | 2 | 0.2 | 13 | 73% | -1.5 | -0.8 | 35
CC1CCN(S(=O)(=O)c2cnc(Cl)c(Br)c2)CC1 | 6 | 3.0 | 2 | 3% | 1.9 | 1.1 | -1
CSc1ccc(C(=O)N2CCC(n3nccc3NC(=O)C3CC3)CC2)cc1 | 0 | -1.9 | -1 | 6% | 4.0 | 4.6 | -22
CN(C)CCOc1ncnc2c1oc1ccccc12 | -10 | ? | -8 | 3% | 2.9 | -5.4 | -1
Cc1csc(=O)n1CC(=O)OCC(=O)NCc1ccc(Cl)cc1Cl | -3 | -1.2 | -2 | -5% | 1.8 | -1.8 | -1
O=C(COc1ccccc1Cl)NC1CC1 | -6 | 1.2 | 0 | -3% | -4.1 | -1.9 | -2
Cn1cccc1Cc1nnc(SCC(=O)Nc2nccs2)n1C | -4 | 6.3 | 6 | . | 0.9 | 0.4 | -12
CCN1CCN(C(=O)Cn2ncc3ccsc3c2=O)CC1 | 3 | 3.1 | 1 | 0% | -0.9 | -8.2 | .
Cc1nn(C(C)C(=O)N/N=C/c2ccc(N(C)C)cc2)c(C)c1[N+](=O)[O-] (stereo not given) | -4 | -1.5 | 27 | 23% | -2.5 | 8.2 | 99*
O=C(O)c1cccc2c1Cc1cc(Cl)ccc1-2 | 9 | . | . | 2% | -1.1 | . | .
CCCS(=O)(=O)N1CCCC(C(=O)NCCN(Cc2ccccc2)C(C)C)C1 (stereo not given) | 7 | ? | -5 | 0% | -1.2 | 4.9 | .
COC(=O)c1c(Cc2ccccc2Cl)c[nH]c1C | 1 | ? | -5 | . | -1.5 | -2.2 | 4
COc1cc(C(C)=O)ccc1Oc1ccc(S(=O)(=O)N2CCOCC2)cn1 | 4 | . | . | 4% | -0.8 | -2.7 | -4
COCCCn1cnc2c(c1=O)c1nc3ccccc3nc1n2-c1ccccc1 | 9 | 1.4 | -4 | 0% | 0.5 | -0.5 | -10
COc1ccc(C(=O)Nc2ccc3nc(N4CCN(C)CC4)cc(C)c3c2)c(OC)c1 | -6 | ? | 1 | . | 2.8 | 3.0 | 0
COc1ccc(C)c2sc(N(CCCN(C)C)C(=O)c3ccc(S(=O)(=O)N4CCc5ccccc5C4)cc3)nc12 | 51* | 2.2 | 3 | -6% | 7.7 | -2.0 | -24
CCOC(=O)C1=C(C)Nc2nc(=S)[nH]n2C1c1ccc(Cl)cc1 (stereo not given) | 5 | ? | 6 | 6% | -0.5 | . | .
COc1cc(C(=O)Nc2nnc(C)s2)c([N+](=O)[O-])cc1OC | 5 | -2.3 | 2 | 17% | 3.0 | 0.8 | -24
O=C(CCC(=O)N(CC(=O)NC1CCCCC1)c1ccc(F)cc1)Nc1nccs1 | 0 | -0.6 | -5 | . | -2.3 | 2.7 | .
CC(C)Oc1ccc(CNC(=O)C2CCN(C(=O)N3CCOc4ccccc43)CC2)cc1 | 0 | ? | 1 | . | -0.6 | 2.2 | 5
COc1ccc(-n2c(SCC(N)=O)nnc2-c2ccc(NS(=O)(=O)c3ccc(C)cc3)cc2)cc1 | 55* | -4.6 | ? | 30% | 6.8 | -2.1 | -8
NC(=O)c1cc(C(N)=O)nc(Cl)n1 | -10 | -1.8 | -2 | -1% | -2.4 | 9.1 | .
CCn1c(=O)n(CC)c2cc(S(=O)(=O)Nc3cc(C)cc(C)c3C#N)ccc21 | -8 | ? | 0 | 14% | 2.0 | 4.7 | -9
N/C(=N\OC(=O)CN1C(=O)c2ccccc2C1=O)c1ccc(Cl)cc1 | 12 | ? | -22 | -10% | -0.1 | 0.2 | -4
O=P(O)(c1ccc(Cl)cc1)c1ccc(Cl)cc1 | -4 | 7.8 | -5 | -3% | -1.4 | 1.7 | 3
CCOC(=O)Nc1ccc2c(COC(=O)CNS(=O)(=O)c3ccc(NC(C)=O)cc3)cc(=O)oc2c1 | -1 | -0.5 | 1 | . | 0.9 | -4.3 | -3
COC(=O)[C@H]1[C@H](CCc2ccccc2)NC(=O)N(Cc2ccccc2)[C@@H]1C | -2 | -0.7 | 2 | . | 12 | -1.9 | -2

(further entries)
SMILES | B2AR ag | RanGTP-Imp inh | Calb FLC | Vif TR-FRET | HNF4A DNA FP | LANA-H2B inh | ALR inh
COc1ccc(S(=O)(=O)N(C(=O)c2ccco2)c2cc3sc(=O)oc3c3ccccc23)cc1 | 28 | 3.9 | 23 | ? | 2.2 | -2.1 | -72
O=C(N/N=C/c1ccc(O)cc1)c1cccc(N/N=C/c2ccc(O)cc2)c1 | 25 | -2.5 | -5 | 5% | 3.0 | 4.1 | .
CCC(CC)C(=O)Nc1ccc(C)cc1O | 6 | -3.0 | -2 | 1% | -5.2 | -4.8 | 3
O=C(CSc1nnnn1C1CC1)N1CCN(c2cccc(Cl)c2)CC1 | -1 | . | . | . | 2.0 | -5.6 | -4
COc1ccc(S(=O)(=O)N2CCN(C(=O)/C=C/c3ccco3)CC2)cc1 | -7 | . | . | 20% | -4.6 | . | .
CCOc1ccc2oc(C(=O)OCC(=O)NC3CCCCC3)c(C)c2c1 | -3 | . | . | 3% | 8.6 | -1.0 | -3
Cc1ccc(S(=O)(=O)N2CCCCC2)cc1NC(=O)c1ccc(Br)o1 | -10 | . | . | 7% | -2.6 | 1.0 | -1
NS(=O)(=O)c1ccc(NC(=O)c2ccc3c(c2)CCN3S(=O)(=O)c2ccccc2)cc1 | 13 | 5.5 | -1 | . | -4.3 | 5.7 | 3
CN1CCN(C(=O)/C=C/c2cccc(Cl)c2)CC1 | -8 | -0.7 | -4 | . | 0.3 | 9.3 | 1
COc1cc(C(=O)NCc2nnc(SCC(=O)N3CCCC3)o2)cc(OC)c1OC | 13 | 6.3 | -5 | . | 5.1 | 4.9 | 3
O=C(NNC(=O)c1ccccc1)C(=O)N1CCCCC1 | 0 | 7.4 | 4 | 10% | -1.6 | 8.0 | -2
CC(=O)c1c(C(C)=O)c(C)n(-c2nc(-c3ccccc3)c(C)s2)c1C | 0 | -0.8 | -11 | -5% | 0.6 | 4.0 | -2

Bioassay records (PubChem BioAssay)
